# Source: PubChem
# SF-1 act – activators of human SF-1, primary screen, cell-based, CHO-K1, Gal4-SF-1 LBD, luciferase luminescence | Steroidogenic factor 1 (Homo sapiens), Q13285 | CHO-K1 Gal4-SF-1 LBD luciferase reporter; % increase over DMSO SF-1-specific signal | activation, % at 10 µM | 65,000 compounds, 1.9% hits;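 active means activation above the mean activation of all tested compounds plus 3 SD, cut at about 50% in these data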
#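 System: CHO-K1 cells with Gal4–hSF-1 LBD chimera plus Gal4-driven luciferase; quantity: 4,000 CHO-K1 cells per well; compound: one dose, 10 µM compound, 1% DMSO; times: 20 h compound treatment, 37 °C; measured by: SteadyLite luciferase luminescence; read-out: percent activation versus DMSO; benchmarks: DMSO and mock-transfected background; replicates: one test per compound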
# RORA act – activators of orphan receptor RORA, primary screen, cell-based, luminescence | CHO-K1 Gal4-RORA LBD luciferase reporter; percent increase over mock-subtracted basal signal | activation, % at 10 µM | 65,000 compounds, 1.5% hits | AID 560, 2006;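 active means activation above the mean of all tested compounds plus 3 SD, cut at about 49% in these data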;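 further: 0% = DMSO-treated RORA cells and 100% = added signal equal to DMSO minus mock-transfected cells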
# Target sequence (P35398 whole entry, looked up, the tested form may be a part): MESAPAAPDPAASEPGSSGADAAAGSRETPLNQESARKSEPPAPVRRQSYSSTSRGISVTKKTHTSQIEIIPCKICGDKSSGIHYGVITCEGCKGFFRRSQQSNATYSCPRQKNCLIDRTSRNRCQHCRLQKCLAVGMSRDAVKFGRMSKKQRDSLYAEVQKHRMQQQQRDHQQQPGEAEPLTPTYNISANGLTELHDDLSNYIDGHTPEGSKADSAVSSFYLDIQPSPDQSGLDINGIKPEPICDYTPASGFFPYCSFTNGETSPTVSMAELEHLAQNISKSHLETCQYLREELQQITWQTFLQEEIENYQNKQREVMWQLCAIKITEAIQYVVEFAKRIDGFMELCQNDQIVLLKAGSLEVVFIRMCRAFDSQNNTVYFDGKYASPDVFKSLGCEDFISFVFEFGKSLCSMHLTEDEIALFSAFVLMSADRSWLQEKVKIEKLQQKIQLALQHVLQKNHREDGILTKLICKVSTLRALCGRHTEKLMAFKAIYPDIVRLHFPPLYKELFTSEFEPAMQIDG
# Ecoli tolC – growth inhibitors of E. coli tolC mutant, primary screen, strain BW25113 ΔtolC::kan, 384-well. OD615. growth inhibition, % at 10 µM (by protocol). 65,000 compounds, 2.2% hits. AID 573, 2007;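 active means growth inhibition at or above a cutoff equal to the mean over every tested compound plus 3 SD, cut at about 60% in these data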;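 further: growth measured after 20 h incubation at 37 °C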
#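 Signal: optical density read at 615 nm; Assay system: E. coli ΔtolC::kan strain BW25113; Times: 20 h incubation with compound, 37 °C; Dosing: 10 µM final, single dose.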
# M1 antagonist – antagonists of rat M1 muscarinic receptor. Muscarinic acetylcholine receptor M1 (Rattus norvegicus), P08482. AID 628, 2007. B-score at 10 µM. 64,000 compounds, 3.4% hits. CHO-M1 cells, Fluo-4 calcium, ACh EC80 antagonist mode; hits give low values;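 active means calcium fluorescence response, raw or row-and-column corrected B-score, differing from the plate sample mean either way at a set confidence level, mostly lower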
# Ec RNAP inh – E. coli RNAP inhibitors, biochemical; 62,000 compounds, 0.2% hits; inhibition, %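 (tested at 10 µM)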; DNA-directed RNA polymerase subunit beta (Escherichia coli (strain K12)), P0A8V2; AID 559, 2006; E. coli RNA polymerase, fluorescence transcription assay; in the data active means inhibition above about 20%;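 further: 0% = enzyme without compound and 100% = no enzyme blank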
# The depositor's hits bear a star. An excerpt; the hit share may differ from the screen's.
SMILES,SF-1 act,RORA act,Ecoli tolC,M1 antagonist,Ec RNAP inh
Nc1ccc(-c2cnc(-c3ccc(N)cc3)nc2)cc1,8.6,-44.1,-9.1,0.0273,-0.1
O=C(NCc1ccc(Cl)cc1)c1noc2c1CCCCC2,12.6,38.2,29.7,0.32,-5.1
Cc1cc(NC(=O)CSc2nc(C(C)C)nc3sc(C)c(C)c23)no1,-33.3,2.0,-10.7,0.957,1.6
Cc1ccc(CN2CC(C(=O)Nc3ccc4c(C)cc(=O)oc4c3)CC2=O)cc1 (stereo not given),10.5,-0.8,6.6,-0.282,-2.7
CC(=O)Oc1cc(C(C)C)c(OCCN(C)C)cc1C,-10.4,-10.9,8.1,0.209,4.3
Fc1ccc(-c2nnc(-c3ccc(Cl)cc3)o2)cc1,38.2,56.1*,-10.7,0.221,5.3
c1ccc2c(c1)CCCN2Cc1nnc2n1CCCCC2,3.0,4.0,-3.4,0.125,6.4
CN1C(=O)CS(=O)c2ccc(C(=O)NC3CC3)cc21 (stereo not given),5.6,19.1,-12.7,0.0132,4.3
COc1cccc(-c2cc(C(F)(F)F)n3ncc(C(=O)NCC4CCCO4)c3n2)c1 (stereo not given),3.8,4.0,-9.8,-1.86,7.8
CN(CCO)CC(O)Cn1cnc2c1c(=O)n(C)c(=O)n2C (stereo not given) (tested in a mixture with another compound),17.0,-11.3,11.9,0.419,7.3

# 5 entries from above, reformatted:
structure | SF-1 act | RORA act | Ecoli tolC | M1 antagonist | Ec RNAP inh
Fc1ccc(-c2nnc(-c3ccc(Cl)cc3)o2)cc1 | 38.2 | 56.1* | -10.7 | 0.221 | 5.3
Cc1ccc(CN2CC(C(=O)Nc3ccc4c(C)cc(=O)oc4c3)CC2=O)cc1 (stereo not given) | 10.5 | -0.8 | 6.6 | -0.282 | -2.7
CC(=O)Oc1cc(C(C)C)c(OCCN(C)C)cc1C | -10.4 | -10.9 | 8.1 | 0.209 | 4.3
CN(CCO)CC(O)Cn1cnc2c1c(=O)n(C)c(=O)n2C (stereo not given) (tested in a mixture with another compound) | 17.0 | -11.3 | 11.9 | 0.419 | 7.3
Cc1cc(NC(=O)CSc2nc(C(C)C)nc3sc(C)c(C)c23)no1 | -33.3 | 2.0 | -10.7 | 0.957 | 1.6

# Following part
SMILES,SF-1 act,RORA act,Ecoli tolC,M1 antagonist,Ec RNAP inh
N#CC1=C2SCN(Cc3ccccc3)CN2C(=O)CC1c1ccccc1F (stereo not given),4.2,1.8,-14.2,-0.0223,4.1
Cn1nnnc1SCC1=C(C(=O)O)N2C(=O)[C@@H](NC(=O)[C@H](O)c3ccccc3)[C@H]2SC1,-15.7,-16.1,10.2,-0.218,14.2
COc1ccccc1NC(=O)c1nnn(CC(=O)Nc2cccc(SC)c2)c1N,-20.0,-4.7,3.4,0.815,7.0
COc1ccc(-c2cc(NCc3ccccn3)n3ncnc3n2)cc1,-1.7,-10.3,-16.4,-0.255,8.9

# Structures above that have two or more sulfur atoms (2):
SMILES,SF-1 act,RORA act,Ecoli tolC,M1 antagonist,Ec RNAP inh
Cc1cc(NC(=O)CSc2nc(C(C)C)nc3sc(C)c(C)c23)no1,-33.3,2.0,-10.7,0.957,1.6
Cn1nnnc1SCC1=C(C(=O)O)N2C(=O)[C@@H](NC(=O)[C@H](O)c3ccccc3)[C@H]2SC1,-15.7,-16.1,10.2,-0.218,14.2
